Yeast UUG start: modulators of yeast start codon fidelity, primary screen, whole organism, S. cerevisiae, single point, plate reader | hit rate 0.13% among 350,000 | activity score, % at 18.7 µM | S. cerevisiae UUG-firefly luciferase reporter, luminescence/redox ratio;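 active = replicate mean at a twofold rise or more, about +100% in these data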;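 also: firefly luciferase made from a UUG start codon reports start codon fidelity; reporter light over untreated wells divided by growth signal over untreated wells; some hits fall short of that in this replicate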
eIF4H FP inh: human eIF4H binding inhibitors, primary screen, translation initiation inhibitor project, biochemical, uHTS, fluorescence polarization. eIF4H fluorescence polarization binding assay. inhibition, % at 35 µM. Eukaryotic translation initiation factor 4H (Homo sapiens), Q15056. hit rate 0.94% among 290,000. AID 2012, 2009;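 active = 50% or more with normal probe brightness, or confirmed in later tests; inconclusive = above 50% with abnormal brightness, or retests that disagree; inactive = below 50% or failed in later tests; about a fifth of its hits are not listed in these tables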;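 also: calls also rest on retests at 20 µM and on dose response follow-up; 0% = protein and probe with vehicle and 100% = probe without protein; strong numbers were not always called active; many hits fall short of the cut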
PABP polyA inh: PABP poly(A) RNA binding inhibitors, primary screen, biochemical, fluorescence polarization, uHTS. Polyadenylate-binding protein 1 (Homo sapiens), P11940. hit rate 1% among 290,000. AID 2014, 2009. inhibition, % at 35 µM;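 active = 50% or more with normal probe brightness, or confirmed in later tests; inconclusive = above 50% with abnormal brightness, or retests that disagree; inactive = below 50% or failed in later tests; about a fifth of its hits are not listed in these tables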;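 also: calls also rest on retests at 20 µM and on dose response follow-up; controls were probe without protein and protein plus probe with vehicle; some compounds called inactive have numbers as strong as hits; many hits fall short of the cut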
Target sequence (P11940 whole entry, looked up): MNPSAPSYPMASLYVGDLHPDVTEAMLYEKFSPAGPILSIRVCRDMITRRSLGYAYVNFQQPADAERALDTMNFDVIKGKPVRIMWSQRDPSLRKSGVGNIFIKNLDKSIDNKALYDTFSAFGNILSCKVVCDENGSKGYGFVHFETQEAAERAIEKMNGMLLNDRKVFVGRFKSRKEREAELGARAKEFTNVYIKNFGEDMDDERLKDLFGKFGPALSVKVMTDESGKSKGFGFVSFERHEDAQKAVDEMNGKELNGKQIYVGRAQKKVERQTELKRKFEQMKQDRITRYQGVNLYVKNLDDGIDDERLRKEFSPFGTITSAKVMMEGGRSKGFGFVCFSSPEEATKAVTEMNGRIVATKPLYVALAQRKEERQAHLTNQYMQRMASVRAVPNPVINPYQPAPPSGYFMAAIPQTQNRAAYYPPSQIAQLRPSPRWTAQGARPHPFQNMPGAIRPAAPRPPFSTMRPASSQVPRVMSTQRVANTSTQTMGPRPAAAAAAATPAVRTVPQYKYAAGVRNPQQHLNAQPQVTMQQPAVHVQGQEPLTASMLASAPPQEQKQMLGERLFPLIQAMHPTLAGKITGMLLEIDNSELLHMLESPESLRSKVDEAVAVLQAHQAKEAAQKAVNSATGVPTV
Rce1 inhib: yeast Rce1p protease inhibitors, primary screen, biochemical, fluorescence, cell-free homogeneous. yeast membranes, quenched prenylated peptide cleavage fluorescence. calls only. hit rate 0.27% among 290,000. AID 2563, 2010;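 active = fall in fluorescence gain of 50% or more versus controls, with final raw signal at or below 3038400; inconclusive = same 50% fall but final raw signal above 3038400; inactive = fall in fluorescence gain under 50%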;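 also: plate controls were neutral control wells for no effect and wells lacking membranes for full effect; tested at 10 µM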
CSC inhib: cancer stem cell viability inhibitors, primary screen, luminescence. cancer stem cell-like cells viability. inhibition, % at 7.5 µM. hit rate 1.1% among 300,000;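 active = mean at 75% or more and at least half the replicates too; inconclusive = mean and replicates disagree; tested in HMLE shEcad cells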;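 also: 0% = median of negative and 100% = median of positive control wells; the first replicate is given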
MT1-MMP act inh: blockers of MT1-MMP proenzyme processing, primary screen, HT1080 RFP-PRO-GFP cells, GFP/RFP fluorescence; GFP/RFP ratio fluorescence, overnight; percent of plate control window, DMSO zero; GFP/RFP ratio change, % at 20 µM; hit rate 0.061% among 360,000;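 active = GFP/RFP ratio change of at least 30% with cell ATP level not reduced by more than half and red fluorescence within 50% of control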; also: strong numbers were not always called active
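Assay system: HT1080 cells carrying an RFP-PRO-GFP reporter | Dosing: Single dose of 20 µM compound, 1% DMSO final | Incubation: Cells overnight before dosing, compound overnight, 37 °C, 5% CO2 | Evaluation: GFP/RFP fluorescence ratio | Control set: DMSO and RFP-L50D-GFP cell wells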
HIV Env fusion: inhibitors of HIV-1 Env-driven cell-cell fusion, primary screen, HeLa-JRFL effector, CEM21 target cells, luciferase; inhibition, % at 12.3 µM; hit rate 1.1% among 360,000;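 active = mean replicate inhibition score of at least 50 and every replicate individually at or above 50; inconclusive = only one of the two criteria met; inactive = mean below 50 and not all replicates reaching 50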;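 also: 0% = plate neutral controls and 100% = maraviroc near 300 nM; one replicate is shown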
eIF4H FP inh retest: further read-out of eIF4H FP inh, marked with its call; inhibition, %; compound at 20 µM; confirmation average;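 mean of two retest wells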
PABP polyA inh retest: recorded beside PABP polyA inh, whose call it bears; inhibition, %; compound at 20 µM; confirmation repeats;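 mean of two retest wells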
MT1-MMP act inh RFP: second read-out of MT1-MMP act inh, no call of its own (marks repeat the call); RFP signal change, %; measured here: RFP expression control read;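 0 = vehicle wells; hits needed this value within 50% of zero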
Numbers without * were called inactive; i = inactive; ? = inconclusive; / = no result given.

SMILES | Yeast UUG start | eIF4H FP inh | PABP polyA inh | Rce1 inhib | CSC inhib | MT1-MMP act inh | MT1-MMP act inh RFP | HIV Env fusion | others
Cc1ccc(NC(=O)CCCC(=O)OC(C)C(=O)c2ccccc2)cc1 (stereo unspecified) | 5 | 0 | -2 | i | -8 | 1 | 2 | 0
COc1ccccc1Nc1nc(NCCO)nc(N)c1[N+](=O)[O-] | -7 | -4 | 13 | i | 3 | -14 | -6 | -17
CC(C)S(=O)(=O)C1=NSC2=NC(=O)/C(=C\c3ccc(-c4ccccc4)o3)C(=N)N21 | / | ? | -8 | i | 55 | -15 | -6 | /
O=C(Nc1ccc(C(=O)Oc2ccccc2)c(O)c1)c1ccccc1 | / | -5 | -12 | i | 17 | 0 | 0 | -13
O=C(CCNC(=O)C1CCN(S(=O)(=O)c2ccccc2)CC1)NCCc1cccc(F)c1 | 3 | -19 | -10 | i | -2 | -3 | -4 | -10
COc1ccccc1-n1cccc1C=O | / | -9 | 5 | i | -13 | -1 | 5 | 10
COc1ccccc1/C=C1/C(=O)N(c2cc(C)cc(C)c2)C(c2cccc([N+](=O)[O-])c2)S1(=O)=O (stereo unspecified) | -11 | -10 | -15 | i | / | 4 | 1 | 10
O=C(Nc1ccc(OC(=O)c2cccnc2)cc1)c1cccnc1 | -5 | -2 | -11 | i | -7 | -4 | 3 | -194
COc1ccc(C(=O)OCC(=O)N2CCC(C)CC2)cc1S(=O)(=O)N1CCOCC1 | 15 | / | / | / | / | -4 | 1 | 9
COC(=O)c1cccc(C(=O)N2CCC(CO)(Cc3ccccc3Cl)CC2)c1 | 10 | 8 | -5 | i | -13 | -6 | -8 | 0
CCn1nc(C)c(CNC(=O)Nc2ccccc2C(=O)OC)c1C | -20 | 0 | 12 | i | 41 | 3 | -13 | 7
CCCCC1(COC(=O)CCC(=O)O)C(=O)N(c2ccccc2)N(c2ccccc2)C1=O | -5 | / | / | / | -13 | 4 | 4 | /
COc1ccc(/C=C2\N=C(c3ccccc3Cl)NC2=O)cc1 | 31 | -1 | 10 | i | / | 2 | -9 | -80
COc1ccc(CNC(=O)c2ccc(C(C)(C)C)cc2)cc1 | / | -2 | 6 | i | -4 | 5 | 1 | -39
O=C(CSc1nnc2ccc(-c3ccccn3)nn12)Nc1cccc(F)c1 | 12 | / | / | / | / | 0 | 2 | -18
Cc1cc(=O)oc2cc(OCC(=O)N3c4ccccc4NC(=O)C3(C)C)ccc12 | / | / | / | / | 5 | -2 | -1 | 34
O=C(Cn1c(=O)n(Cc2ccccc2)c(=O)c2ccccc21)NCc1ccco1 | -8 | 1 | 6 | / | -6 | 0 | 0 | -105
CCNC(=O)NC(=O)C(C)OC(=O)c1cc(S(=O)(=O)N2CCCCCC2)ccc1OC (stereo unspecified) | 9 | 12 | 1 | i | 0 | 5 | 0 | 44
CC1CCc2c(sc3nc(C4CC4)nc(N4CCN(C(=O)c5ccco5)CC4)c23)C1 (stereo unspecified) | -20 | / | / | i | 37 | -37 | -29 | 40
Cc1c(NC(=O)C(C)Oc2ccc(Br)cc2Cl)c(=O)n(-c2ccccc2)n1C (stereo unspecified) | 3 | / | / | i | -2 | 5 | 3 | 7
COc1c(C)cccc1C(=O)Nc1cc(Cl)ccc1N1CCOCC1 | -5 | -4 | -11 | i | 11 | -3 | -9 | /
O=C(NCCc1cn[nH]c1)c1ccc2oc(CCc3ccccc3)nc2c1 | -8 | / | / | / | / | -1 | -3 | 3
CC(C)(C)C(=O)Nc1ccccc1N1CCN(c2ccc(F)cc2)CC1 | -11 | -4 | 12 | i | -15 | -3 | -10 | 5
Cc1csc(NC(=O)Cc2c[nH]c3ccccc23)n1 | / | 7 | -12 | i | 0 | -2 | 2 | /
Cc1cnc(CNC(=O)c2csc([C@@H]3O[C@H](CO)[C@H](O)[C@H](O)[C@H]3O)n2)cn1 | -27 | / | / | / | / | 1 | 5 | -27
Cn1nnc(NC(=O)COc2ccc(C3CCCCC3)cc2)n1 | -11 | -9 | -7 | i | -2 | 4 | -7 | -55
CC(=O)NC(=S)Nc1cccc2ccc(C)nc12 | / | 4 | -4 | i | -4 | -3 | -1 | -5
COc1ccc(Oc2coc3c(CN(C)C)c(O)ccc3c2=O)cc1 | -20 | -6 | -9 | i | -11 | -6 | -2 | -1
COC(=O)COc1cc(OCC(=O)OC)c2c(-c3ccccc3)cc(=O)oc2c1 | -6 | -8 | 1 | i | -2 | -1 | 0 | -12
O=C(NC1CCCCC1)c1nc(C2CCNCC2)oc1-c1ccccc1 | -6 | / | / | / | / | 2 | 5 | -6
COC(=O)c1cc(S(=O)(=O)Nc2cccc(S(N)(=O)=O)c2)oc1C | / | -13 | 10 | i | -11 | 1 | 0 | 10
Cn1cccc1/C=N/N1CCN(Cc2ccc(Cl)cc2)CC1 | -3 | 12 | 13 | i | 9 | -3 | -12 | 11
Cc1ccc2nsnc2c1NC(=O)CCl | / | 9 | 10 | i | -7 | 4 | 1 | -5
O=C(O)c1ccc(N2CCS(=O)(=O)CC2)cc1 | -12 | 7 | -16 | i | -14 | 8 | 1 | 18
COC(=O)C(C(=O)OC)N1C(=O)CCC1=O | -14 | 13 | 0 | i | -7 | -1 | 2 | /
O=C(N/N=C/c1ccc2nccnc2c1)c1ccncc1 | -2 | -4 | 9 | i | 1 | -1 | -2 | 6
COc1ccc(N(CC(=O)N2CCN(Cc3ccccc3)CC2)S(=O)(=O)c2ccccc2)cc1 | -8 | 8 | 6 | i | 5 | 1 | -3 | -20
O=C1NC(=NCc2ccccc2)S/C1=C/c1ccc(O)cc1 | / | -6 | -10 | i | 44 | -8 | -6 | -8
C#CCN(Cc1ccco1)C(=O)c1cc(COc2ccc(F)cc2Cl)on1 | / | -13 | -3 | i | 3 | -4 | 2 | -10
O=C(NCCc1ccccc1)C(c1ccccc1F)N(C(=O)c1csnn1)C1CC1 (stereo unspecified) | -4 | 60 | 0 | / | 2 | 1 | 8 | 0 | eIF4H FP inh retest=6;PABP polyA inh retest=4
COc1ccc(/C=N/NC(=O)CN2CCCCCCC2)c(C)c1C | / | 6 | 3 | i | 3 | 2 | 3 | -23
COc1cccc(N2CCN(c3c4c(nc5ncnn35)CCC4)CC2)c1 | -15 | -10 | 0 | i | 9 | -1 | -13 | 33
CCC(C)NS(=O)(=O)c1ccc(S(=O)(=O)N2CC=C(c3ccc(F)cc3)CC2)cc1 (stereo unspecified) | / | -4 | 80 | i | 10 | -11 | -18 | 27 | eIF4H FP inh retest=-6;PABP polyA inh retest=4
CC(C)=CCN1CCN(Cc2cccc3nccnc23)CC1CCO (stereo unspecified) | -16 | 4 | -10 | i | -7 | 6 | 2 | 22
S=C(NCC1CCCCC1)Nc1ccc(Oc2ccccc2)cc1 | / | 0 | -7 | / | ? | 0 | -10 | 3

Reprinted from the part before: 2 compounds; new compounds follow.
SMILES | Yeast UUG start | eIF4H FP inh | PABP polyA inh | Rce1 inhib | CSC inhib | MT1-MMP act inh | MT1-MMP act inh RFP | HIV Env fusion | others
CC(C)=CCN1CCN(Cc2cccc3nccnc23)CC1CCO (stereo unspecified) | -16 | 4 | -10 | i | -7 | 6 | 2 | 22
S=C(NCC1CCCCC1)Nc1ccc(Oc2ccccc2)cc1 | / | 0 | -7 | / | ? | 0 | -10 | 3
Cc1ccc2c(c1)N(C(=O)CCC(=O)NCc1cccnc1)CC(C)O2 (stereo unspecified) | -7 | -14 | -9 | i | 6 | 1 | 7 | -9
CCC[C@@H]1CCCO[C@@](C(=O)NCc2cc(C)n(C)n2)(C(F)(F)F)C1 | 4 | / | / | i | -2 | -1 | 2 | 24
CC1CC(C)(C)NC(=S)N1CCC(=O)Nc1ccc2c(c1)OCCO2 (stereo unspecified) | / | -9 | 20 | / | -9 | -1 | -15 | 4
COC(=O)c1ccc(CO/N=C(\NC(C)=O)c2nonc2NC(C)=O)cc1 | -23 | -1 | 6 | i | -1 | 1 | 1 | 3
O=[N+]([O-])C1=CC=C2C(=NC3(CCCCC3)N2O)C1=NCCc1ccccc1 | / | 14 | 4 | i | / | 16 | 12 | -1
O=C(NC1C2CCCC1CN(C1CC1)C2)c1ccc(Cl)cc1 (stereo unspecified) | -16 | 0 | 6 | i | 8 | 7 | -8 | -8
CC[C@H](C)[C@H]1CNC(=S)N1CC1CCN(CC)CC1 | -6 | / | / | / | / | 0 | 6 | 4
CC(=O)N1CCN(S(=O)(=O)c2ccc(C)c([N+](=O)[O-])c2)C1C(C)C (stereo unspecified) | / | 4 | 4 | i | -5 | -1 | 3 | -19
C/C(=N\Nc1ccc(Cl)cc1)c1c(O)cc(C)oc1=O | / | 2 | -9 | i | 53 | 1 | 2 | -3
Cc1c(CCC(=O)NCCCn2ccnc2)c(=O)oc2cc3oc4c(c3cc12)CCCC4 | -13 | 0 | -12 | i | 6 | 4 | -14 | /
CCCNc1nc(-c2ccccc2)c(C(=O)OCC)cc1C#N | 0 | -5 | -4 | i | 51 | -3 | -6 | /
COc1cc(C(=O)N2CCN(C(=O)Cc3ccccc3)CC2)cc(OC)c1OC | 7 | -2 | -5 | i | -3 | 0 | 3 | /
CC(=O)N1CCN(C(=O)C2(NC(=O)Nc3ccccc3Cl)CCCCC2)CC1 | -11 | -2 | -6 | i | -5 | -4 | -1 | 13
O=C(Nc1ccc(Br)cn1)c1ccc([N+](=O)[O-])o1 | / | -2 | -6 | i | 65 | -1 | -6 | 9
Fc1cccc(CSc2ccc3nnc(-c4ccccn4)n3n2)c1 | -25 | 4 | -21 | i | 9 | 1 | -1 | 13
COc1cc(OC)cc(C(=O)NCCc2cnc[nH]2)c1 | -10 | -1 | -1 | i | -9 | 3 | 6 | 23
CCC(=O)Nc1cccc(NC(=O)CSc2nnc(-c3ccc(NS(C)(=O)=O)cc3)n2CC)c1 | -13 | 10 | 10 | i | -7 | 4 | 1 | 14
CCOc1ccccc1C1c2[nH]c3ccccc3c2C[C@H]2C(=O)N(C3CC3)CC(=O)N12 (stereo partly specified) | 0 | 0 | -4 | i | -10 | -10 | -5 | 9
Cc1ccc(N=Cc2ccc(N(C)C)cc2)cc1 | -28 | -1 | -4 | i | -9 | -2 | -1 | /
Cc1cc2c(NC(=O)CCCC(=O)O)cccc2nn1 | -3 | -6 | 5 | i | -8 | 1 | -2 | 1
Cc1cccc(NC(=S)N2CCN(c3cc(C)ccc3C)CC2)c1 | / | -4 | -5 | i | -4 | -2 | 4 | -13
COc1cc(/C=C/C(=O)NC(C)(C)C)ccc1OCc1ccccc1 | / | 7 | -4 | i | 18 | 2 | 5 | 19
N=c1c2c(n(Cc3ccc(Cl)c(Cl)c3)c3c1CCC3)CCCC2 | / | 9 | -10 | i | / | -17 | -32 | /
Cc1ccc(/C=C2/NC(=O)N(Cc3ccccc3)C2=O)o1 | / | 33 | -4 | i | 10 | -16 | 2 | 15
COc1cccc(CNC(=O)CN(C)S(=O)(=O)c2ccc3c(c2)n(C)c(=O)c(=O)n3C)c1 | -10 | -5 | 3 | i | -9 | 2 | 3 | -2

Screening results from PubChem.
